ClpP mod = qHTS Assay for Activators of ClpP; ATP-dependent Clp protease proteolytic subunit (Bacillus subtilis (strain 168)), P80244; purified B. subtilis ClpP, FRET peptide cleavage, 20 min; Potency, µM (highest dose often 57.5 µM), without a hit: at the top dose activity change, negative = active; 1.9% of 340,000 active; AID 651965, 2013; active = well fitted falling curve with a large enough effect; inconclusive = small, poorly fitted or top-dose-only effect; inactive = no such curve, though single readings can be large or run the other way; note: potency is the fitted concentration of half-maximal effect; the source files actives as falling curves though it sought activators and does not explain the sign; nearly all actives have a fitted effect of over 65% in size; many hits overshoot -100%
Target sequence (P80244 whole entry, looked up): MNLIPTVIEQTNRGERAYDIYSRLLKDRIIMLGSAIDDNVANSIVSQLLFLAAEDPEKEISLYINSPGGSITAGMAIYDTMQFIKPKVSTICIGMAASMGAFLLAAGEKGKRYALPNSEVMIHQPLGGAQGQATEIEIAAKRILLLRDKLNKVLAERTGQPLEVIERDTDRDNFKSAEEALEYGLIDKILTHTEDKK
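ClpP 10 microg/mL final, pH 8 Tris/KCl buffer with BSA, glycerol, Tween-20; compound pinned in; FRET-FV substrate; RT 20 min; Ex320/Em430; ΔFRET vs ADEP 5.8 microM, DMSO, no enzyme.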
gsp agonist = qHTS for Agonist of gsp, the Etiologic Mutation Responsible for Fibrous Dysplasia/McCune-Albright Syndrome: qHTS; gsp mutant cells, cAMP HTRF, 30 min; control for the full effect not named in the record; Potency, µM (highest dose often 76.9 µM), for the others: at the highest dose activation (cAMP increase), usual class: activators; 0.13% of 340,000 active; AID 624287, 2012; active = well fitted activation curve with a large enough effect; inconclusive = small, poorly fitted or top-dose-only effect, or another doubt; inactive = no such curve, though single readings can be large or run the other way; cell line not stated here;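 note: phosphodiesterase inhibitor Ro 20-1724 added with compounds to block cAMP breakdown; potency is the fitted concentration of half-maximal effect; nearly all actives have a fitted effect of over 60% in size; about a fifth of the inactives were tested at one dose only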
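Cells in DMEM/10% FBS with G418 were pretreated with compounds in DMSO plus […] (300 uM stock) for 30 min at 37C. cAMP was measured by HTRF (cAMP-d2 plus anti-cAMP antibody-K) after 30 min at room temperature.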
D2 agonist = Beta-Arrestin HTS for Positive Allosteric Modulators of the Human D2 Dopamine Receptor: Agonists. D(2) dopamine receptor (Homo sapiens), P14416. DiscoveRx PathHunter D2 beta-arrestin, luminescence, 90 min; 100% = 57 uM dopamine signal. activation, % (no concentration beside the values). 0.084% of 360,000 active; in the data active = activation above about 40%; inconclusive = about 15% to 40%; inactive = below about 15%; note: compound concentration not given in the record; the text of the record calls up to 30% inactive
Target sequence (P14416 whole entry, looked up): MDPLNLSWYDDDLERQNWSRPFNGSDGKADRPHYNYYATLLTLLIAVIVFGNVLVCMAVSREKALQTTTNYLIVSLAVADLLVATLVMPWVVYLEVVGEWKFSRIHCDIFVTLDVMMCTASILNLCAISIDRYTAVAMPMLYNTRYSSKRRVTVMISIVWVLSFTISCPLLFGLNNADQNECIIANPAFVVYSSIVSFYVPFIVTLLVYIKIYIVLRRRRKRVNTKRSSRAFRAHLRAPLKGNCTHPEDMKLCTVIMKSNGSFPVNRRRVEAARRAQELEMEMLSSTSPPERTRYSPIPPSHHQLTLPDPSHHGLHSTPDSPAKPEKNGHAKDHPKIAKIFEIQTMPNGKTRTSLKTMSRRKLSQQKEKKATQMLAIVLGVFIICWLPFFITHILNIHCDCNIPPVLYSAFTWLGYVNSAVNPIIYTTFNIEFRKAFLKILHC
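DiscoveRx PathHunter D2 beta-arrestin cells (2,100/well) attached overnight, then compound-stimulated 90 min at 37 C in HBSS/10 mM HEPES/0.1% Tween-20 buffer; beta-galactosidase complementation read by luminescence after 1 h at ambient temperature. Dopamine 57 uM final (EC100) as control.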
gsp antagonist = qHTS for Antagonists of gsp, the Etiologic Mutation Responsible for Fibrous Dysplasia/McCune-Albright Syndrome: qHTS; gsp-mutant cells, cAMP HTRF, 30 min; control for the full effect not named in the record; Potency, µM (doses to about 76.9 µM), for inactives: top-dose activity change, negative = inhibition, actives largely listed as inhibitors; 0.4% of 340,000 active; AID 624288, 2012; active = falling curve of any shape with a large fitted effect; inconclusive = falling curve, mostly with a smaller effect; inactive = flat or rising curve; cell line not stated here;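 note: intracellular cAMP measured with PDE inhibitor Ro 20-1724 present during compound exposure; potency is the fitted concentration of half-maximal effect; % is set by controls: 0 for no effect and ±100 for the full control effect; nearly all actives have a fitted effect of over 65% in size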
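HTRF cAMP measurement after 30 min RT detection following 30 min, 37C compound treatment alongside […] (added as 300 uM solution) in G418-selected cells seeded at 2000/well and grown 16–24 h.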
Menin-MLL FL inh = qHTS Assay for Inhibitors Targeting the Menin-MLL Interaction in MLL Related Leukemias: Competition With Fluorescein Labeled MLL-derived Peptide. Fluorescence polarization, fluorescein-MLL peptide displacement from menin. FP activity change, % at 61.4 µM. 290,000 tested, under 10 active; inconclusive = falling polarisation curve, or a change in total fluorescence; inactive = total fluorescence flat and polarisation flat or rising; no compound was filed as active; the % refers to the polarisation; negative = inhibition;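 note: % of control where 0% means no effect; inhibitors lower the polarisation; unlabelled MLL peptide was the positive control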
Sfp PPTase inh = qHTS Assay for Inhibitors of Bacillus subtilis Sfp phosphopantetheinyl transferase (PPTase). 4'-phosphopantetheinyl transferase ffp (Bacillus subtilis), Q9F4F7. Biochemical Sfp PPTase activity, qHTS. Potency, µM, without a hit: max response, negative = inhibition, usual class: inhibitors. 3.5% of 310,000 active. AID 1490, 2009; active = well fitted inhibition curve with a large enough effect; inconclusive = small, poorly fitted or top-dose-only effect, or another doubt; inactive = no such curve, though single readings can be large or run the other way;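 note: the enzyme is Sfp with the accession as filed and its product quenches rhodamine fluorescence; potency is the fitted concentration of half-maximal effect; 0% = enzyme reaction without inhibitor and -100% = no enzyme wells; top concentration of the series not given in the record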
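Buffer: 50 mM Hepes-Na pH 7.6, 10 mM MgCl2, 0.01% Nonidet P-40, 0.01% BSA. Enzyme 15 nM, pre-exposed to compound 15 min; substrates then added and fluorescence change tracked over 30 min.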
PINK1 modulator = A Quantitative High throughput Screen to Identify Chemical Modulators of PINK1 Expression. PINK1 immunofluorescence, high-content cytometry, 24 h. Potency, µM (series often up to 76.6 µM), for inactives: at the highest dose activation (PINK1 increase), usual class: activators. 0.2% of 410,000 active; active = well fitted activation curve with a large enough effect; inconclusive = small, poorly fitted or top-dose-only effect; inactive = flat fitted curve, though single readings scatter; cell line not stated here;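 note: potency is the fitted concentration of half-maximal effect; % of control where 0% means no effect; nearly all actives have a fitted effect of over 65% in size; a mitochondrial uncoupler was the plate control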
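Fluorescence from anti-PINK1 antibody, together with nuclear and cell stains, was scanned on a laser-scanning cytometer. Before staining, stable-line cells were incubated 24 hours with compounds at 5 concentrations; primary antibody 12 h at 10 degrees C.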
Starred values were filed as active, the others as inactive; u = inconclusive; x = not tested or not shown; [ ] = another dose, or the depositor's remark.

SMILES	ClpP mod	gsp agonist	D2 agonist	gsp antagonist	Menin-MLL FL inh	Sfp PPTase inh	PINK1 modulator
Cc1ccccc1-c1nc(CN2CCC(C(=O)NC3CC3)CC2)c(C)o1	-1.3%	1%	-2.6	-23%	8.4	7%	-1.1%
O=C(NCc1nc2ccccc2[nH]1)C1=C[C@H](c2csc3ccccc23)C[C@H](OCc2ccc(CO)cc2)O1	-4.5%	6%	-1.4	u	u	10%	0.4%
Cc1cccc2c1-c1sc(C(=O)NCCCN3CCc4ccccc4C3)cc1CO2	3.0%	1%	8.7	1%	1.8	45µM*	-0.6%
COc1ccc(C(=O)NNC(=S)NC(=O)c2ccccc2[N+](=O)[O-])cc1	0.3%	14%	-6.3	-9%	1.6	2%	5.6%
COc1ccc(-c2nc3c(c(=O)[nH]c(=O)n3Cc3ccccc3)n2CCO)cc1	1.4%	15%[15.4 µM]	-0.5	-6%	-12	10%	2.5%
CCOC(=O)N1CCC(=NNC(=O)NC2CCCCC2)CC1	x	u	-0.6	3%	0.0	2%	-0.9%
Clc1ccc(Cn2c(-c3cccnc3Cl)nc3ccccc32)c(Cl)c1	-6.5%	0%	3.2	17%	5.7	-1%	-2.9%[38.3 µM]
CSc1cccc(NC(=S)N(C(C)C)C(C)c2ccccn2)c1 (centres undefined)	-10%	0%[15.4 µM]	-2.9	-10%	0.9	10%	-1.8%
CC1CCCCC1NC(=O)C(=O)NCC1CCCO1 (centres undefined)	-3.8%	17%	-2.7	8%	1.5	13%	-2.0%
CCOC(=O)c1cc(-c2ccccc2)sc1NC(=O)C(C)Sc1nnc(C)s1 (centres undefined)	x	0%[15.4 µM]	3.5	-30%	6.3	13%	0.9%

Single records (already shown). Values in the order: ClpP mod, gsp agonist, D2 agonist, gsp antagonist, Menin-MLL FL inh, Sfp PPTase inh, PINK1 modulator
Cc1cccc2c1-c1sc(C(=O)NCCCN3CCc4ccccc4C3)cc1CO2 is listed with 3.0%, 1%, 8.7, 1%, 1.8, 45µM*, -0.6%
CC1CCCCC1NC(=O)C(=O)NCC1CCCO1 (centres undefined) is listed with -3.8%, 17%, -2.7, 8%, 1.5, 13%, -2.0%
O=C(NCc1nc2ccccc2[nH]1)C1=C[C@H](c2csc3ccccc23)C[C@H](OCc2ccc(CO)cc2)O1 is listed with -4.5%, 6%, -1.4, u, u, 10%, 0.4%

More structures follow.
SMILES	ClpP mod	gsp agonist	D2 agonist	gsp antagonist	Menin-MLL FL inh	Sfp PPTase inh	PINK1 modulator
COC(=O)c1c(-c2cc(OC)cc(OC)c2)sc2ccc(OC)cc12	u	x	-0.1	-16%	x	x	2.3%
CC(C)NC(=O)CN1C(=O)NC(CCc2ccccc2)C1=O (centres undefined)	-0.2%	8%	-0.2	-6%	4.6	1%	0.9%
Cc1cc(C)c(C)c(C(=O)COC(=O)CNC(=O)CNC(=O)c2ccco2)c1C	0.9%	-4%[15.4 µM]	-5.1	-11%	4.8	-2%	1.6%
Cn1ncc([N+](=O)[O-])c1C(=O)Nc1ccccc1Cl	x	2%	2.0	-7%	-5.1	-14%	0.2%
CCOc1cc(/C=N/NC(N)=O)ccc1OCC(=O)Nc1ccc(C)c(C)c1	x	4%[15.4 µM]	-4.0	-14%	-0.4	-22%	12%
O=C(NCCCn1ccnc1)c1cccnc1	-0.4%	-10%	-4.0	-4%	4.0	4%	-0.5%
CC(C)Sc1nnc(-c2ccc(S(=O)(=O)N3CCOCC3)cc2)n1C	x	1%[15.4 µM]	-3.7	-1%	-0.9	0%	5.1%
CCC(=O)N1c2ccccc2NC2=C(C(=O)CCC2)C1c1ccc(N(C)C)cc1 (centres undefined)	-3.2%	7%	-4.1	2%	0.0	9%	-1.8%
CC(=O)C1=NN(c2ccc(Cl)cc2)C(c2ccc3c(c2)OCO3)N(C(C)=O)N1C (centres undefined)	-2.3%	-1%	-6.1	-11%	2.2	-8%	1.7%
COc1ccccc1N1CCN(C(=O)c2cc(C(C)(C)C)oc2C)CC1	x	-60%[inhibitor]	-3.9	2%	u	-22%	1.2%
CCc1ccc(OS(=O)(=O)c2cn(C)c(=O)n(C)c2=O)cc1	0.8%	10%[15.4 µM]	1.8	10%	1.9	18%	-0.6%
COc1ccc(NC(=O)c2cc3ccc4c5ccccc5[nH]c4c3cc2O)cc1	x	u	-5.0	7%	-0.9	12%	8.0%
C#CCn1cc(C=C2C(=O)c3ccccc3C2=O)c2ccccc21	0.8%	-40%[inhibitor]	-2.1	-6%	u	-16%	u
Cc1ccc(-c2nnc(COC(=O)c3cccs3)o2)cc1	-0.1%	12%	-2.8	5%	1.8	3%	-1.0%
CCCCn1c(-c2csc3c2CCCC3)n[nH]c1=S	0.1%	0%	4.6	11%	2.0	0%	-5.4%[38.3 µM]
CCOC(=O)C1CCCN(C2CC(=O)N(c3ccc(C)c(C)c3)C2=O)C1 (centres undefined)	-0.2%	2%	-3.8	0%	-2.1	8%	-1.5%
N#CC1(P(=O)(c2ccccc2)c2ccccc2)CC1	-1.5%	-5%	-0.7	2%	3.1	9%	-1.3%
Cc1ccnc(-n2sc3ccccc3c2=O)n1	0.7%	10%[15.4 µM]	-10	-27%	u	2.5µM*	-1.1%
Cc1sc(NC(=O)CN2CCOCC2)c(C(=O)c2ccccc2)c1C	-0.3%	-47%[inhibitor]	-4.6	2%	3.1	-7%	-0.4%
CCOC(=O)C1=C(C)NC(=O)NC1c1ccc(OC(C)C(=O)O)c(OC)c1 (centres undefined)	-0.8%	-1%	-2.8	8%	-0.7	7%	0.8%[38.3 µM]
CC1(C)Cc2c(sc(NC(=O)C(=O)N3CCCC3)c2C(=O)O)CO1	0.7%	-13%	1.2	-1%	x	-7%	-0.3%
CC1CCCN(S(=O)(=O)Cc2ccc(Cl)cc2)C1 (centres undefined)	-4.4%	u	-3.0	-4%	-0.1	2%	4.9%[38.3 µM]
O=C(c1ccc(Cl)c(S(=O)(=O)N2CCOCC2)c1)N(Cc1ccco1)Cc1cccs1	-1.6%	5%	0.4	-16%	x	x	0.0%
O=c1c2ccccc2cnn1Cc1ccc(Br)cc1F	x	16%[15.4 µM]	-1.5	1%	5.9	20%	2.3%
C[C@@H](C(=O)Nc1ccc2c(c1)OCO2)n1c(=O)[nH]c2ccccc2c1=O	-1.4%	-7%	-2.4	u	2.7	5%	-0.4%
CC1=C(C(=O)OC(C)C)C(c2cccnc2)C2=C(CC(C)(C)CC2=O)N1 (centres undefined)	28µM*	11%	0.6	3%	2.6	-8%	1.2%[38.3 µM]
C/C(CC(=O)Nc1c(C)cc(C)cc1C)=N\NC(=O)c1cnccn1	1.2%	6%	-2.0	-7%	-1.6	-26%	1.1%
CN(C)S(=O)(=O)c1cccc(NC(=O)CSc2nc3ccccc3[nH]2)c1	x	4%[15.4 µM]	2.4	-29%	0.3	9%	-1.4%
CC(C)OCCCNC(=S)N1CCC(C(=O)c2ccc3c(c2)OCCO3)CC1	-4.7%	14%	1.4	-12%	-4.2	9%	0.0%
CC(=O)N1CC(=O)N(Cc2ccccc2)/C(=C/c2ccccc2)C1=O	x	-43%[inhibitor]	-2.3	-3%	3.6	6%	-0.4%

Reprinted at random: 2 compounds from above.
SMILES	ClpP mod	gsp agonist	D2 agonist	gsp antagonist	Menin-MLL FL inh	Sfp PPTase inh	PINK1 modulator
CC1CCCN(S(=O)(=O)Cc2ccc(Cl)cc2)C1 (centres undefined)	-4.4%	u	-3.0	-4%	-0.1	2%	4.9%[38.3 µM]
CSc1cccc(NC(=S)N(C(C)C)C(C)c2ccccn2)c1 (centres undefined)	-10%	0%[15.4 µM]	-2.9	-10%	0.9	10%	-1.8%

Further entries
SMILES	ClpP mod	gsp agonist	D2 agonist	gsp antagonist	Menin-MLL FL inh	Sfp PPTase inh	PINK1 modulator
CCOc1cc(C2Nc3ccccc3C(=O)N2c2ccccc2OC)ccc1O (centres undefined)	u	14%	-1.5	8%	-0.7	2%	-2.6%
CCn1nc(C(=O)NCc2ccco2)c(Cl)c1Cl	-1.1%	u	1.3	7%	x	8%	-2.7%
O=[N+]([O-])c1cc(Oc2cccnc2)cc([N+](=O)[O-])c1	-0.3%	0%	5.2	8%	-1.4	-2%	4.4%
CCc1ccc(CN(C)C(=O)c2cc(COc3ccc(OC)cc3Cl)on2)nc1	-1.2%	-23%	-0.3	-16%	1.4	8%	1.1%
COc1cccc(CN(C)C(=O)Cc2ccc(OC)c(S(=O)(=O)N3CCOCC3)c2)c1	x	2%[15.4 µM]	-3.5	-1%	x	x	-2.8%
CN(C(=O)CSc1nnc(CNC(=O)c2ccccc2)o1)c1ccccc1	-1.6%	-29%	-0.9	10%	x	7%	0.9%
CC(C)(C)C(=O)COC(=O)C1=NN(c2ccccc2)C(=O)CC1	-0.8%	15%[15.4 µM]	0.5	-4%	-10	2%	-0.3%
COc1cc(N=Nc2c(C)n(C)n(-c3ccccc3)c2=O)ccc1N	x	-6%[15.4 µM]	-2.1	u	12	10%	1.2%

Records listed above marked active in Sfp PPTase inh.
structure	gsp agonist	D2 agonist	Menin-MLL FL inh	Sfp PPTase inh	PINK1 modulator
Cc1cccc2c1-c1sc(C(=O)NCCCN3CCc4ccccc4C3)cc1CO2	1%	8.7	1.8	45µM*	-0.6%
Cc1ccnc(-n2sc3ccccc3c2=O)n1	10%[15.4 µM]	-10	u	2.5µM*	-1.1%

Source: PubChem BioAssay
